From PubChem
NS1 function inh: qHTS Assay for Inhibitors of Influenza NS1 Protein Function | actives 0.4% (n = 270,000) | S. cerevisiae slowed by influenza A NS1, growth recovery by OD600 | Potency, µM (top dose mostly 46.1 µM), inactives show at the highest dose activity, positive = more growth; active means well fitted rising curve with a large enough effect; inconclusive means small, poorly fitted or top-dose-only effect; inactive means no such curve, though single readings can be large or run the other way; note: nearly all actives have a fitted effect of over 50% in size
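Read-out: OD600 growth recovery of NS1-expressing budding yeast. Cells grown overnight at 30C in -URA glucose medium, washed, resuspended and diluted 1:100 in 2% galactose assay medium, pH 6.0. Same strain lacking NS1 served as positive control.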
RE007 growth inh: qHTS Assay for Inhibitors of the HIV-1 protein Vpr; actives 0.21% (n = 360,000); S. pombe RE007 Vpr strain, BacTiter-Glo ATP luminescence, 24 h; control for the full effect not named in the record; AID 651644, 2012; Potency, µM (highest dose often 92.2 µM), without a hit: top-dose activity change, negative = less growth; active = well fitted falling curve with a large enough effect; inconclusive = small, poorly fitted or top-dose-only effect; inactive = no such curve, though single readings can be large or run the other way;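 note: % is set by controls: 0 for no effect and ±100 for the full control effect; nearly all actives have a fitted effect of over 50% in size; the assay follows cell death caused by Vpr and the record does not say whether a fall means rescue or toxicity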
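Fission yeast RE007 carrying one integrated HIV-1 vpr copy, seeded at OD 0.01 in PMG+AL medium with 23 nL pinned compound. Grown 24 h at 30 degrees; viability read by BacTiter-Glo luminescence after 5 min.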
Marburg entry inh: qHTS for inhibitors of binding or entry into cells for Marburg Virus; Marburg virus pseudotyped entry inhibition, cell reporter; control for the full effect not named in the record; about a third of the inactives were read at about 46 µM; Potency, µM (top dose mostly 37.8 µM), without a hit: at the highest dose activity change, negative = inhibition, usual class: inhibitors; actives 1.8% (n = 300,000); AID 540276, 2011; active = well fitted inhibition curve with a large enough effect; inconclusive = small, poorly fitted or top-dose-only effect, or effect the other way; inactive = flat fitted curve, though single readings scatter; tested in HEK293 cells; about a fifth of its hits are not listed in these tables; note: % is set by controls: 0 for no effect and ±100 for the full control effect; luciferase read-out
StopGo reporter: High Throughput Screening for Foot and Mouth Disease Virus Antivirals; human cells with a luciferase reporter of 2A StopGo recoding; control for the full effect not named in the record; Potency, µM (highest dose often 57.9 µM), inactives show at the highest dose signal change, negative = less light; actives 1.2% (n = 410,000); AID 1159524, 2015; active = well fitted falling curve with a large enough effect; inconclusive = small, poorly fitted or top-dose-only effect; inactive = no such curve, though single readings can be large or run the other way; tested in HEK293T cells; note: % is set by controls: 0 for no effect and ±100 for the full control effect; nearly all actives have a fitted effect of over 45% in size; luciferase light after 4 h
SARS PLpro yeast: qHTS of Yeast-based Assay for SARS-CoV PLP; actives 0.19% (n = 330,000); S. cerevisiae expressing SARS-CoV PLpro, growth rescue; control for the full effect not named in the record; Potency, µM (titrated, usually from 32.9 µM), without a hit: top-dose activity, positive = growth rescue; active means well fitted rising curve with a large enough effect; inconclusive means small, poorly fitted or top-dose-only effect; inactive means no such curve, though single readings can be large or run the other way; note: 0% is about no effect; nearly all actives have a fitted effect of over 55% in size; growth read by luminescence after 48 h
Cruzain inh noDet: qHTS Assay for Promiscuous and Specific Inhibitors of Cruzain (without detergent). Cruzipain (Trypanosoma cruzi), P25779. purified cruzain, Z-FR-AMC fluorescence, no detergent. Potency, µM, without a hit: max response, negative = inhibition, most hits filed as inhibitors. actives 2.3% (n = 200,000);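 note: plate controls were enzyme without inhibitor for no effect and buffer without enzyme for full effect; nearly all actives have a fitted effect of over 40% in size; top concentration of the series not given in the record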
Target sequence (P25779 123-467 limits assumed): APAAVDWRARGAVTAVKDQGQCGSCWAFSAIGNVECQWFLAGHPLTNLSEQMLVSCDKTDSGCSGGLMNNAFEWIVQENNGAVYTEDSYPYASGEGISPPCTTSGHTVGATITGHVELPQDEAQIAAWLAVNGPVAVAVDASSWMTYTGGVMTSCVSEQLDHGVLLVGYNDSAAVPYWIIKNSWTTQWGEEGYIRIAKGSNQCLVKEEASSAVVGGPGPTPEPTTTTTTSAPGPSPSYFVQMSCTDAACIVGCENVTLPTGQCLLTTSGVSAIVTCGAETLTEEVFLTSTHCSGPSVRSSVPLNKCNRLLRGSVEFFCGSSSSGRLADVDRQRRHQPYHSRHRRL
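Detergent-free condition (0.00005% Triton X-100) in acetate buffer pH 5.5 with DTT. 1.5 nM enzyme and compound were pre-mixed 15 min, then 2 uM Z-FR-AMC substrate added; reaction progress from fluorescence change between first and third reads (60 s).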
LASV entry inh: qHTS for Inhibitors of binding or entry into cells for Lassa Virus; Lassa virus pseudotype entry inhibition, cell reporter; control for the full effect not named in the record; Potency, µM (titrated, usually from 37.9 µM), for inactives: at the top dose activity change, negative = inhibition, hits mostly inhibitors; actives 1.2% (n = 300,000); AID 540256, 2011; active means well fitted inhibition curve with a large enough effect; inconclusive means small, poorly fitted or top-dose-only effect, or effect the other way; inactive means flat fitted curve, though single readings scatter; tested in HEK293 cells; note: % is set by controls: 0 for no effect and ±100 for the full control effect; nearly all actives have a fitted effect of over 50% in size; luciferase read-out
Cruzain Triton: qHTS Assay for Promiscuous and Specific Inhibitors of Cruzain (with detergent). Cruzipain (Trypanosoma cruzi), P25779. purified cruzain, Z-FR-AMC fluorescence, 0.01% Triton. actives 0.43% (n = 200,000). Potency, µM, for inactives: max response, negative = inhibition, actives largely listed as inhibitors. AID 1478, 2009;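 note: plate controls were neutral wells for no effect and buffer without enzyme for full effect; nearly all actives have a fitted effect of over 40% in size; top concentration of the series not given in the record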
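Cruzain (1.5 nM) preincubated 15 min at RT with compound in 100 mM sodium acetate pH 5.5, 5 mM DTT, 0.01% Triton X-100. Reaction started with 2 uM Z-FR-AMC; AMC fluorescence (ex 360/em 450 nm) change over 60 s gave rate.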
Numbers without * were called inactive; ? = inconclusive; . = not tested or not shown; [ ] = another dose, or the depositor's remark. Unless noted, calls come from the whole dose curve; as a rule, active = well fitted curve in the direction sought with a large enough effect; inconclusive = small, poorly fitted or top-dose-only effect, or another doubt; inactive = no such curve, though single readings can be large; an effect the other way counts as inactive or inconclusive. Potency is the fitted concentration of half-maximal effect. Rows are unselected; about 4.7% have a hit in one of these screens.

Screens in order – StopGo reporter | Cruzain inh noDet | LASV entry inh | RE007 growth inh | NS1 function inh | Cruzain Triton | SARS PLpro yeast | Marburg entry inh
- N#C/C(=C(/O)COc1cccc2ccccc12)c1nc2ccccc2[nH]1
 : 11.4% | ? | 1.8% | 24.7% | 7.6% | 0.6% | -0.9% | 7.9%
- Cc1nc(C(=O)N/N=C/c2[nH]ncc2Br)cs1
 : -11.9% | . | 1.6%[46.1 µM] | -23.0% | -0.7% | . | -0.9% | ?
- Cc1cccc(OCC(=O)Nc2cc(S(=O)(=O)N3CCOCC3)ccc2N2CCCC2)c1C
 : -14.4% | . | -22.4% | 26.8% | . | . | -2.2% | -18.0%
- CC(C)(C)OC(=O)C(C(=O)OC(C)(C)C)c1ccc(Cl)nn1
 : 19.9% | . | -5.2%[46.1 µM] | -4.8% | -2.9% | . | -0.2% | -0.6%[46.1 µM]
- COc1ccccc1N1CCN(Cc2cc(=O)c(OCC(=O)NC3CCCC3)co2)CC1
 : 0.0% | . | ? | -3.6% | . | . | -5.4% | -6.8%[46.1 µM]
- CCN(CC)S(=O)(=O)c1cccc(C(=O)N/N=C/c2ccc(N3CCOCC3)cc2)c1
 : ? | . | 2.7%[46.1 µM] | -15.7% | . | . | -2.3% | 14.5%[46.1 µM]
- CCOC(=O)c1cnc(-n2nc(C)cc2C)nc1NC(C)c1ccccc1 (configuration not stated)
 : 0.0% | ? | -3.0% | 1.1% | -113.9% | -7.0% | -2.7% | 24.7%
- CCC(=O)NC(Nc1cccc(C)n1)(C(F)(F)F)C(F)(F)F
 : -17.5% | -4.6% | -0.6% | 3.6% | -0.9% | -1.3% | 4.3% | ?
- O=C(NC(Nc1cc(C(F)(F)F)ccc1Cl)C(=O)c1ccccc1)c1ccccc1 (configuration not stated)
 : -21.3% | ? | -9.2% | -7.7% | ? | -1.9% | -4.8% | ?
- CCCNS(=O)(=O)c1ccc(OCC(=O)OC)cc1
 : 11.9% | 8.8% | 10.6% | 5.9% | -9.3% | -0.9% | 3.9% | ?
- Cc1nn(CC(=O)N(C)C2CCS(=O)(=O)C2)c(C)c1[N+](=O)[O-] (configuration not stated)
 : -2.4% | . | 10.9% | 11.8% | . | . | 6.6% | -2.4%
- COc1cc(/C=N/n2c(SC)nnc(C(C)(C)C)c2=O)ccc1O
 : -9.2% | 18.6% | -7.7% | 0.6% | 22.0% | -3.5% | 15.8µM* | 2.7%
- COc1ccc(C(=S)N2CCOCC2)cc1OC(=O)c1cccc([N+](=O)[O-])c1
 : -19.6% | . | . | 24.0% | 3.8% | . | -0.7% | .
- CC(=O)c1cccc(NC(=O)c2ccc3c(c2)c(C)c(C)n3Cc2ccc(Cl)cc2)c1
 : -11.9% | 6.31µM* | -0.8%[46.1 µM] | . | . | 2.9% | . | .
- CCOC(=O)/C(=N\Nc1cc(Cl)ccc1Cl)N1CCOCC1
 : -23.3% | . | 6.0%[46.1 µM] | 123.1% | . | . | -2.4% | ?
- COCCn1c(=NC(=O)CSCC(=O)NC2CCCCC2)sc2cc(OC)ccc21
 : ? | -11.2% | -11.4% | -8.5% | -2.2% | -4.2% | -12.9% | 1.0%
- CCNc1nc(NCC)nc(N(C#N)C(C)C)n1
 : -1.9% | . | 7.9% | 3.4% | 3.8% | . | 0.8% | 1.2%
- CCN1C(=O)CC(C(=O)O)SC1=Nc1ccc(OC)cc1 (configuration not stated)
 : 8.5% | 0.0% | 4.9% | 12.5% | -5.9% | 5.6% | 3.1% | 0.2%
- CCc1cccc(C)c1NC(=O)CN(C)Cc1cccc(F)c1
 : -16.8% | 9.5% | -0.1% | 6.7% | 0.2% | -0.5% | -6.3% | -29.3%
- Cc1ccc(CCNC(=O)CN(C)S(=O)(=O)c2ccc3c(c2)c(=O)n(C)c(=O)n3C)cc1
 : -15.9% | ? | . | -3.3% | -1.2% | 4.4% | 11.2% | 2.6%
- Cc1ccc(NC(=O)/C=C\C(=O)NCC(=O)O)cc1C
 : -16.3% | 1.3% | 14.6% | ? | -53.3% | 0.9% | -91.2% | ?
- CCOC(=O)c1c(C)n(C(=O)c2ccco2)c(=O)n1C(=O)c1ccco1
 : 22.7% | 5.5% | -14.7% | 1.5% | -8.1% | 1.3% | 1.0% | 1.4%
- COc1cc(CNn2c(C)n[nH]c2=S)cc(Cl)c1OCC(=O)NC(C)(C)C
 : -13.5% | . | ? | 0.8% | 9.1% | . | 2.7% | ?
- O=C(CN1C(=O)CSc2ncccc21)N1CCOCC1
 : -19.1% | -8.9% | . | -1.1% | 2.9% | 3.0% | 5.7% | .
- CNc1ccccc1C(C)(C)c1cc(-c2ccco2)n[nH]1
 : . | 1.5% | 0.0% | -15.0% | -25.8% | -2.9% | -3.7% | 4.1%
- Cc1ccc(C(=O)Nc2ccc(F)cc2)cc1NC1=NC2CS(=O)(=O)CC2S1 (configuration not stated)
 : -12.8% | . | . | -2.4% | -11.4% | . | 2.5% | .
- O=C(CSc1nc(=O)n2ccccc2n1)NCc1ccccc1Cl
 : -12.1% | . | 5.1% | 1.7% | . | . | -5.4% | 8.1%
- Cc1ccn2c(=O)c(NC(=O)COc3ccccc3)c(C)nc2c1
 : -6.8% | . | -6.0% | -0.1% | . | . | -1.2% | 11.2%
- O=C(Nc1cccc(Cl)c1Cl)c1cc(S(=O)(=O)N2CCC3(CC2)OCCO3)ccc1F
 : -10.8% | ? | 2.4%[46.1 µM] | . | . | -1.0% | . | .
- Cc1ccn2c(=O)c(C(=O)NC(C)c3ccccc3)c(O)nc2c1 (configuration not stated)
 : -2.3% | 4.5% | . | . | . | -0.2% | . | ?
- CCn1c(SCC(=O)NCc2ccc(F)cc2)nc2c(c1=O)SC(C)C2 (configuration not stated)
 : -9.2% | 5.7% | -8.0% | 5.7% | -50.7% | -4.4% | -14.7% | -11.7%
- Cc1ccc(C(=O)Nc2ncc(Cc3ccc(SC(F)F)cc3)s2)cc1
 : -27.5% | -19.8% | ? | 18.5% | 10.1% | -4.6% | 17.6% | -25.0%
- O=C1OCCC1Sc1nnc(-c2ccc(Cl)cc2Cl)o1 (configuration not stated)
 : ? | . | ? | 0.2% | -2.0% | . | 0.1% | 5.01µM*
- Cc1ccccc1C(=O)NC(C(N)=O)P(=O)(OC(C)C)OC(C)C (configuration not stated)
 : 27.6% | . | 27.7%[46.1 µM] | 10.3% | 1.6% | . | -1.2% | 6.0%[46.1 µM]
- O=C(NCCN1CCOCC1)C(=O)c1c[nH]c2ccccc12
 : 0.0% | . | . | 9.0% | 17.8% | . | 4.0% | -6.7%[46.1 µM]
- Cc1ccc(Nc2nc(Cl)nc(NC(C)(C)C)n2)cc1
 : 51.9%[activator] | . | . | -11.2% | -15.2% | . | -16.5% | .
- COc1ccccc1C(=O)N1CCN(c2nc3cc(C)c(C)cc3cc2C#N)CC1
 : ? | 19.7% | 10µM* | -2.7% | -46.8% | -9.3% | -34.4% | 8.91µM*
- CC(C)Oc1ccc(CNC(=O)c2ccc3c(c2)nc2n3CCOC2)cc1
 : 16.6% | -3.3% | -1.9%[46.1 µM] | . | . | 1.5% | . | .
- CC(C)C(c1nnnn1Cc1cccs1)N1CCN(C2CCCC2)CC1 (configuration not stated)
 : -17.6% | 3.6% | 2.4% | -19.8% | ? | 1.2% | 11.0% | -23.3%
- O=C(C1=C[C@@H](c2ccc3c(c2)OCO3)C[C@@H](OCc2ccc(CO)cc2)O1)N1CCOCC1
 : 8.5% | . | . | -1.5% | -4.2% | . | 0.4% | .
- CC1CCN(C(=O)CN2C(=O)C(=O)c3ccccc32)CC1
 : -17.2% | -10.6% | . | 3.5% | 1.3% | 0.8% | -1.0% | -1.7%
- CC(=O)N1CCCc2cc(S(=O)(=O)N3CCC(C(=O)N(Cc4ccccc4)C(C)C)CC3)ccc21
 : ? | ? | -11.1%[46.1 µM] | . | . | -1.9% | . | .
- CCOC(=O)C1=C(CN2CCN(c3ccccc3)CC2)NC(=O)NC1c1ccc(C)cc1 (configuration not stated)
 : -15.1% | -8.0% | -6.7%[46.1 µM] | . | . | 3.7% | . | 16.5%[46.1 µM]
- COc1ccc(CCNC(=O)CCc2nc3sc4c(c3c(=O)[nH]2)CCCC4)cc1
 : -5.6% | . | -24.1%[46.1 µM] | -8.4% | 1.3% | . | 2.9% | 8.5%[46.1 µM]
- COc1ccc(CNC2CCCc3ccccc32)c(OC)c1 (configuration not stated)
 : -8.9% | . | -14.4%[46.1 µM] | -5.8% | 4.3% | . | -2.2% | ?
- COc1cc2c(=O)c(S(=O)(=O)c3ccc(F)cc3)cn(Cc3ccc(Cl)cc3)c2cc1OC
 : -18.7% | 5.6% | -20.8%[46.1 µM] | . | . | -4.8% | . | -0.2%[46.1 µM]
- CCCCn1c(C(C)NC(=O)c2ccccc2)nc2ccccc21 (configuration not stated)
 : 0.0% | 0.4% | -8.9%[46.1 µM] | . | . | -3.3% | . | ?
- Cc1cc(C)n(C2=NS(=O)(=O)c3ccccc32)n1
 : 19.5% | 0.7% | -1.2% | 11.2% | -72.0% | -3.5% | -0.9% | 0.9%
- O=C(NC(c1ccccc1)c1ccccc1)N1CCOCC1
 : -5.7% | . | . | 4.9% | -1.6% | . | -0.3% | 2.0%[46.1 µM]
- Cc1ccc(Cl)cc1NC(=O)CSC1=Nc2ccccc2C2=NC(Cc3ccccc3)C(=O)N12 (configuration not stated)
 : -0.9% | -22.0% | ? | . | . | -3.6% | . | .
- CCOC(=O)N1CCc2c(sc(NC(=O)CN3CCOCC3)c2C(=O)Nc2ccccc2)C1
 : ? | . | -20.4% | -4.1% | -3.0% | . | -1.0% | ?
- COc1cccc(NC(=O)Cn2cc(C(=O)C3CC3)c3ccccc32)c1
 : 1.8% | . | 2.9%[46.1 µM] | -14.2% | . | . | 1.0% | 14.2%
